From PubChem
Prx2 Sm inh: Schistosoma mansoni Prx2 inhibition. Potency, µM. actives 0.07% (n = 65,000). S. mansoni Prx2 activity coupled to TGR/GSH (TGR is thioredoxin glutathione reductase), NADPH fluorescence loss, qHTS; some inactives read as strong as hits; active means full or partial inhibition curve with a strong effect at the top dose; inconclusive means weaker partial or single-point curve; inactive means no accepted curve; further: series up to 57 µM; many of its hits are not listed in these tables
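Purified S. mansoni TGR and Prx2 in pH 7.4 phosphate buffer with EDTA and Tween-20 were preincubated with compounds for 15 min. Further NADPH/GSH was added, then a 2.5 mM H2O2 aliquot initiated turnover, followed kinetically by NADPH fluorescence.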
LT uptake inh: anthrax lethal toxin internalization inhibition; Cells, anthrax lethal toxin internalization, FRET ratio (460/530); Potency, µM (titrated, usually from 40 µM), for inactives: at the highest dose activity change, negative = inhibition, hits mostly inhibitors; actives 0.67% (n = 70,000); active = well fitted falling ratio curve with the 530 nm signal flat; inconclusive = other ratio curves, or a change in one channel alone; inactive = flat curves in the ratio and both channels; the % refers to the ratio; further: on the % scale 0 is the no-effect control and ±100 the full control effect; nearly all actives have a fitted effect of over 50% in size; tested in ME-180 cells; beta-lactamase reporter
* marks the source's active call; other numbers are inactive results; ? = inconclusive; / = not tested or not shown; [ ] = another dose, or the depositor's remark. Potency means the concentration at half of the fitted maximal effect. Only part of the results is shown; rates above refer to the full screens.

SMILES | Prx2 Sm inh | LT uptake inh
COCC(=O)N(C)C1(c2nnnn2CCOC(=O)Nc2cccc3ccccc23)CCCC1 | >57 | -1%
CCOC(=O)c1sc2nc(CSc3nc4ccccc4n3CC)[nH]c(=O)c2c1C | >57 | -8%
Cc1ccc2cc(S(=O)(=O)NCCCC(=O)O)ccc2c1 | >57 | 9%
CCSc1nnc(NC(=O)C2(C)Cc3ccccc3C(=O)O2)s1 (centres undefined) | >57 | -7%
CC(C)NC(=O)Cn1c(SCC(=O)N2CCCCCC2)nc2ccccc21 | >57 | -18%
CCOC(=O)c1cnc(N(C)C)nc1SC(=N)N | >57 | -7%[8 µM]
Cc1cccc(NS(=O)(=O)c2cccc3cccnc23)n1 | >57 | -1%
Cc1ccc(Cn2nnnc2CN2CCC(n3nnc4cc(C(F)(F)F)ccc43)CC2)cc1 | >57 | -17%
COc1cc2c(cc1OC)C(C(=O)Nc1ccccn1)C(c1cccnc1)N(C)C2=O (centres undefined) | >57 | 13%
CCOc1ccccc1-c1nn2c(Cc3ccccc3)nnc2s1 | >57 | 0%
O=C(CCc1ccccc1)Nc1ccncc1 | / | -4%
CN(CC(=O)N1CCc2ccccc21)S(=O)(=O)c1ccc(Cl)cc1 | >57 | -12%
COc1ccc(OC)c(CN2CCN(C(=O)c3cccc4ccccc34)CC2)c1 | >57 | 13%
CN(C(=O)CSc1nc(-c2ccc(F)cc2)cs1)C1CCS(=O)(=O)C1 (centres undefined) | >57 | -21%
CC(=O)OCCCN1C(=O)c2ccc(Br)cc2C1=O | >57 | -1%
CCOc1ccccc1NC(=O)CSc1nnc(CNC(=O)c2ccco2)o1 | >57 | 3%
Cc1ccc(CSC(N)=Nc2ccccc2)cc1C | >57 | -6%[8 µM]
CC(C)(C#N)Nc1ccccc1 | >57 | -5%
Fc1ccc2c(c1)nnn2C1CCN(Cc2nnnn2C2CCCCC2)CC1 | >57 | 3%
CSc1nnc(-c2ccc(F)cc2)o1 | >57 | 8%
CCCCSc1nn[nH]n1 | >57 | -4%
COc1ccc(S(=O)(=O)NCc2ccccn2)cc1Cl | >57 | ?
COc1cccc(C(=O)Nc2ccc(N(C)C)cc2)c1OC | >57 | 6%
Cc1ccc(NC(=O)c2oc3c(c2C)C(=O)CC(C)(C)C3)cc1 | >57 | ?
Cc1ccc(-c2noc(CN3CCC(C(N)=O)CC3)n2)cc1 | >57 | -15%

Profiles, quoted from the list. Order of values: Prx2 Sm inh | LT uptake inh
Profile of CCOc1ccccc1-c1nn2c(Cc3ccccc3)nnc2s1 = >57 | 0%
Profile of COc1cc2c(cc1OC)C(C(=O)Nc1ccccn1)C(c1cccnc1)N(C)C2=O (centres undefined) = >57 | 13%
Profile of CCOC(=O)c1cnc(N(C)C)nc1SC(=N)N = >57 | -7%[8 µM]

Structures shown so far that have fluorine:
SMILES | Prx2 Sm inh | LT uptake inh
Cc1ccc(Cn2nnnc2CN2CCC(n3nnc4cc(C(F)(F)F)ccc43)CC2)cc1 | >57 | -17%
CN(C(=O)CSc1nc(-c2ccc(F)cc2)cs1)C1CCS(=O)(=O)C1 (centres undefined) | >57 | -21%
Fc1ccc2c(c1)nnn2C1CCN(Cc2nnnn2C2CCCCC2)CC1 | >57 | 3%
CSc1nnc(-c2ccc(F)cc2)o1 | >57 | 8%

Next section
SMILES | Prx2 Sm inh | LT uptake inh
COCc1[nH]nc2c1C1(C(=O)N(C)c3ccccc31)C(C#N)=C(N)O2 (centres undefined) | >57 | ?
Cc1ccc(C(=O)CSc2n[nH]c(-c3ccco3)n2)cc1C | >57 | 1%
O=C(c1ccc2nc(N3CCOCC3)sc2c1)N1CCCC1 | >57 | 24%
COc1ccc(/C=N/n2c(SC)nnc2-c2ccccc2)cc1C | / | -3%
O=C(C1CCCN(c2nnc(-n3cccc3)s2)C1)N1CCC2(CC1)OCCO2 (centres undefined) | >57 | 1%
Cc1ccsc1C1NC(=O)c2ccccc2N1 (centres undefined) | >57 | -15%
CC(=O)C1=C(O)C(=O)N(CCN2CCOCC2)C1c1ccc(N(C)C)cc1 (centres undefined) | >57 | -2%
O=C(O)C1CCN(C(=O)c2ccccc2C(=O)N2CCC(C(=O)O)CC2)CC1 | >57 | 9%
CC(=O)NC12CC3CC(C1)CC(C(=O)OCC(=O)NC(=O)c1cccn1C)(C3)C2 | >57 | ?
Cc1ncc(CO)c(CN)c1O | >57 | -8%[8 µM]
CCOC(=O)c1ccc2c(c1)C(=O)N(C1CCCCC1)C2=O | / | -2%
O=C(CN1C(=O)C2(OCCCO2)c2ccccc21)NCCc1ccccc1 | >57 | 6%
O=C1CNCCCN2CCN(CCCNCC(=O)Nc3ccc(cc3)S(=O)(=O)c3ccc(cc3)NC(=O)CNCCCN3CCN(CCCNCC(=O)Nc4ccc(cc4)S(=O)(=O)c4ccc(cc4)N1)CC3)CC2 | >57 | 0%[8 µM]
COc1cccc(NC(=O)N2CCC(N3CCCCC3)CC2)c1 | >57 | 7%
O=C(c1ccco1)N1CCN(S(=O)(=O)c2ccc(S(=O)(=O)NC3CCCCC3)cc2)CC1 | >57 | ?
Nc1c(NC2CCCCC2)c2ccccc2oc1=O | / | -2%
C[n+]1cccc(/C=C\c2ccc3cccc(O)c3n2)c1 | >57 | -3%[8 µM]
Cc1cc(=O)oc2cc(OCc3ccc(S(=O)(=O)N4CCOCC4)cc3)ccc12 | >57 | ?
CN(c1nc(-c2ccccc2)cs1)C1CCS(=O)(=O)C1 (centres undefined) | >57 | 3%
Oc1c(CN2CCN(c3ccccn3)CC2)cc(Cl)c2cccnc12 | >57 | ?
OCC(CO)(CBr)CBr | / | -3%
CC(C)c1ccc(-c2nn[nH]n2)cc1 | >57 | 1%
Cn1c(=O)oc2cc(S(=O)(=O)N3CCC(C(=O)N4CC=C(c5ccccc5)CC4)CC3)ccc21 | >57 | ?
O=C(NCc1ccc2c(c1)OCO2)c1cc(S(=O)(=O)N2CCCCC2)ccc1F | >57 | -21%
COc1cc(NC(=O)c2cccc(Cl)c2)c(OC)cc1NC(=O)CN1CCOCC1 | >57 | ?

The listing continues.
SMILES | Prx2 Sm inh | LT uptake inh
Cc1cnc(CNc2ncncc2-c2ccc3c(c2)OCO3)cn1 | >57 | ?
CCOc1ccc(NC(=O)c2cccc(-n3cnnn3)c2)cc1 | >57 | 7%
N#CCCCSC1=C(C#N)C(c2ccccc2Cl)CC(=O)N1 (centres undefined) | / | 2%
Cc1onc(-c2ccccc2Cl)c1C(=O)Nc1nnc(-c2ccc(F)cc2)s1 | >57 | 13%
CC1CCN(CCc2nc3cc(NS(=O)(=O)c4ccccc4)ccc3n2C)CC1 | >57 | ?
CCC(=NCC1CCCO1)c1c(O)n(-c2ccc(Cl)cc2)c(=O)[nH]c1=O (centres undefined) | >57 | 5%
Cc1[nH]c2ccccc2c1C1(O)C(=O)N(Cc2ccc3c(c2)OCO3)c2ccccc21 (centres undefined) | ? | ?
N[C@@H](CC1=CS(=O)(=O)c2ccc(Cl)cc21)C(=O)O | >57 | 9%[8 µM]
COc1ccc(CCNc2oc(COc3ccccc3Cl)nc2C#N)cc1OC | >57 | 16µM*
C=CCn1c(SCC(=O)/C(C#N)=C(\C)N)nnc1C1CCCCC1 | >57 | -5%
CCc1ccc(NC(=O)c2cc(-c3ccco3)on2)cc1 | ? | -25%
C=CC(=O)c1ccc2ccccc2c1 | / | ?
CC(C)Cn1c2c(c(O)c(C(=O)Nc3ccc(F)cc3)c1=O)CCCC2 | >57 | ?
COC(=O)CSc1nnc(CNC(=O)c2ccc(OC)cc2OC)n1C | >57 | 4%
O=C(NCC(=O)N(CC1CCCO1)C(C(=O)NC1CCCC1)c1cccnc1)c1ccco1 (centres undefined) | >57 | -15%
COc1ccc2oc(=O)c(C(=O)N3CCN(c4ccccc4C)CC3)cc2c1 | >57 | -2%
NS(=O)(=O)c1ccc(NC2(C(=O)O)CCCC2)cc1 | >57 | -4%[8 µM]
Cc1cc(C)nc(SCc2nnc(SCC(=O)Nc3nccs3)n2Cc2ccco2)n1 | >57 | -3%
CN(C)c1cccc(NC(=O)CCc2ccccc2)c1 | >57 | 0%
CC(C)=CCNc1ncnc2c1c(C#N)cn2[C@H]1O[C@@H](CO)[C@@H](O)[C@@H]1O | >57 | -2%[8 µM]
COCCn1nnnc1CN(CCc1ccccc1)Cc1cc2ccc(C)cc2[nH]c1=O | >57 | ?
CCn1nnnc1-c1ccc(OC)c(S(=O)(=O)NCCc2ccccc2)c1 | >57 | -8%
N#Cc1cc2c(nc1SCC(=O)Nc1sc3c(c1C#N)CCC3)CCCCC2 | >57 | -1%
Cc1occc1C(=O)Nc1cc(=O)n(C)c(=O)n1C | >57 | -4%
CCOC(=O)CCSc1nnc(-c2cccnc2)n1-c1ccccc1OC | >57 | -1%

Remaining list, next part:
SMILES | Prx2 Sm inh | LT uptake inh
COc1ccc(N(C)C(=O)CC2(CC(=O)O)CCCCC2)cc1 | >57 | -14%
Cn1c(CNC(=O)c2ccco2)nnc1SCC(=O)N1c2ccccc2Sc2ccccc21 | >57 | 18%
COc1ccc(S(=O)(=O)N(C)CC(=O)N2CCN(C)CC2)cc1C | >57 | 6%
CC(C)(C)P(=O)(CO)c1ccccc1 (centres undefined) | / | -4%
CC(=O)N1CCc2cc(S(=O)(=O)NCCN3CCC(C)CC3)ccc21 | >57 | -9%
CCCCC(=O)C1C(=O)NC(=O)NC1=O | >57 | -5%
CC(=O)c1cccc(N(CC(=O)N2CCCC2)S(C)(=O)=O)c1 | >57 | -1%
CCS(=O)(=O)N1CCN(C(=O)c2cccc(OC)c2)CC1 | >57 | 12%
O=C(O)CN1CCN(Cc2ccccc2Cl)C1=O | >57 | -5%
CCOC(=O)N1CCN(C(=O)CN(C2CCCCC2)S(=O)(=O)c2ccc(F)cc2)CC1 | / | 7%
CCc1ccccc1NC(=O)N1C2CCCC1CC(NC(C)=O)C2 (centres undefined) | >57 | -1%
c1nc(NC2CCNCC2)c2cc(-c3ccc4c(c3)OCO4)ccc2n1 | >57 | ?
COC(=O)CSc1ncnc2c1cnn2Cc1ccccc1 | >57 | 2%
COCCn1c(=O)[nH]c2cc(C(=O)NCCN3CCN(c4ccccc4F)CC3)ccc2c1=O | >57 | -7%
O=C(CN1C(=O)CSC1=O)Nc1ccc(C(=O)O)cc1 | >57 | -2%
COc1cccc(C(=O)N(Cc2ccc(N(C)C)cc2)C2CCS(=O)(=O)C2)c1 (centres undefined) | >57 | -18%
CCOC(=O)c1c(C)c(C(=O)NCCN2CCOCC2)c(C)n1CC | >57 | -6%
CCc1ccc(C2CC(c3ccc(C)cc3)Nc3nc(N)nn32)cc1 (centres undefined) | >57 | -2%
CCOC(=O)N1CCN(Cc2cc(=O)oc3cc4c(cc23)CCC4)CC1 | >57 | -4%
Cn1c(=O)c2c(nc(N3CCCCCC3)n2CC(O)COc2ccccc2)n(C)c1=O (centres undefined) | >57 | -10%
O=C(COc1ccccc1)NCCc1cn2ccsc2n1 | >57 | 8%
CN1CCN(C(=O)c2ccc(C3SCC(=O)N3Cc3ccco3)cc2)CC1 (centres undefined) | >57 | 7%
COc1ccc(NC(=O)c2cccc(NC(=O)c3ccco3)c2)c(OC)c1 | / | -2%
C=CCc1c(C)nc(SCc2nc3ccccc3c(=O)[nH]2)[nH]c1=O | / | 11%
O=C(C1CCN(S(=O)(=O)N2CCOCC2)CC1)N1CCN(Cc2ccccc2)CC1 | >57 | -4%

(listing goes on)
SMILES | Prx2 Sm inh | LT uptake inh
CCC(=O)Nc1ccccc1N1CCN(S(C)(=O)=O)CC1 | >57 | -1%
COc1cc(C2c3c(oc4ccc(Cl)cc4c3=O)C(=O)N2Cc2ccco2)cc(OC)c1OC (centres undefined) | >57 | /
COc1ccc(OC)c(-c2cc(C(=O)N3CCN(c4ncccn4)CC3)c3ccccc3n2)c1 | >57 | ?
COc1ccc(NC(=O)CN2CCN(S(=O)(=O)c3ccc(Cl)cc3)CC2)cc1 | >57 | 2%
COc1ccccc1CNC(=O)CNCC1CCCO1 (centres undefined) | >57 | 4%
O=C(CSC1=NCCS1)Nc1ccc(S(=O)(=O)N2CCCCCC2)cc1 | >57 | -8%
Cn1cccc1-c1nc2ccc(NC(=O)c3ccccc3)cc2[nH]1 | >57 | /
Cc1ccc(Cl)cc1-n1c(=O)cc(N2CCN(C(=O)c3ccco3)CC2)[nH]c1=O | >57 | -16%
Cc1ccc(Cl)cc1NC(=O)Cn1cc2c(n1)CCCC2 | ? | ?
Cc1ccc(N=Cc2c(O)n(C)c(=O)n(C)c2=O)nc1 | >57 | -3%
CSCCC(NC(=O)C1CCC(C)CC1)C(=O)O (centres undefined) | >57 | 8%
O=C1/C(=C/c2cccnc2)SC(=S)N1Cc1ccco1 | / | ?
CC(C)(C)N(C=C(Cl)Cl)C(=O)NC1CCCCC1 | / | ?
Nc1cccc2ccccc12 | / | 22%
O=C(c1ccccc1-c1nc2ccccc2[nH]1)N1CCCCC1 | >57 | 15%
CC(C)CN1CC2(CCN(S(=O)(=O)c3ccccc3)CC2)C1 | >57 | 0%
OC[C@H](CCc1c[nH]c2ccccc12)c1c[nH]c2ccccc12 | >57 | -15%[8 µM]
COc1cccc(C2C3=C(CCCC3=O)Nc3nc4ccccc4n32)c1OC (centres undefined) | >57 | 6%

Compounds from the list above with a tert-butyl group, in the order listed:
SMILES | Prx2 Sm inh | LT uptake inh
CC(C)(C)P(=O)(CO)c1ccccc1 (centres undefined) | / | -4%
CC(C)(C)N(C=C(Cl)Cl)C(=O)NC1CCCCC1 | / | ?
